Source: PubChem BioAssay
Six1-Eya2 inh: blocks human Six1 binding to Eya2. Q15475+O00167. AlphaScreen GST-Six1/His-Eya2 binding, biochemical; stronger effect = lower value; control for the full effect not named in the record. activity change, % (test concentration not listed). hit rate 0.56% among 360,000. AID 651725; in the data active = activity change below about -65%; inconclusive = about -30% to -65%; inactive = above about -30%; note: % is set by controls: 0 for no effect and ±100 for the full control effect; compound concentration not given in the record
Target sequence (O00167 whole entry, looked up): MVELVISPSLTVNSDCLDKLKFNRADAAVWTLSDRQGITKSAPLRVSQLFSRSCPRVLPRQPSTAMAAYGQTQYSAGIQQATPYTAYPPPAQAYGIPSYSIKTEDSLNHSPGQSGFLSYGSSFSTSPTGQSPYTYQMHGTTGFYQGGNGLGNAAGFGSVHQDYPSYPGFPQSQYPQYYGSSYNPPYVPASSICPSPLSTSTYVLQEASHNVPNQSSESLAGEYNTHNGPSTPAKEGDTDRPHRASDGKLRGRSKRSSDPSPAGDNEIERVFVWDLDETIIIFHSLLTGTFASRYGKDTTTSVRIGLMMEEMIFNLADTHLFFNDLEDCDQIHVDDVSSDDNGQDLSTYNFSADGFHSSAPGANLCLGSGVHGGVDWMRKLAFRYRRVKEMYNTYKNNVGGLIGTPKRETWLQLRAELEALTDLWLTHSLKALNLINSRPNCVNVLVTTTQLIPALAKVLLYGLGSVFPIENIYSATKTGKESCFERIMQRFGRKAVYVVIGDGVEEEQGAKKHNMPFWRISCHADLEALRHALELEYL
Target sequence (Q15475 whole entry, looked up): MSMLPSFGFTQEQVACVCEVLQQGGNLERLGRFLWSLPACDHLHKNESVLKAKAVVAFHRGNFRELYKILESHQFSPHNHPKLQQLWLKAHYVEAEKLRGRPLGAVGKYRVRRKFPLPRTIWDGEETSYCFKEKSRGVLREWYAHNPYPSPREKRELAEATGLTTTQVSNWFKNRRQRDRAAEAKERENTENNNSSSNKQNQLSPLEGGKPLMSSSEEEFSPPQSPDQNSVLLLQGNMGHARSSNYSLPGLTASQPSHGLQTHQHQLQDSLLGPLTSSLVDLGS
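AlphaScreen with GST-Six1 and His-Eya2 (5X mix: 250 nM and 500 nM), glutathione donor and nickel acceptor beads; buffer 50 mM Tris pH 8.0, 300 mM NaCl, 1 mM TCEP; 1 h at 37 C in the dark.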
D2 potentiator: human D2 receptor positive allosteric modulation; P14416; DiscoveRx D2 beta-arrestin cells, luminescence, 90 min; 100% = 57 uM dopamine signal; potentiation, % (no concentration beside the values); hit rate 0.23% among 360,000; active = potentiation of 50% or more; inconclusive = 30% to 50%; inactive = 30% or less;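 note: compound concentration not given in the record; tested on top of an EC20 dose of dopamine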
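D2 cells co-treated with compound plus 50 nM dopamine (EC20) for 90 min at 37 deg C to detect potentiation. Beta-arrestin recruitment was read as enzyme-fragment luminescence after 1 h at ambient temperature. Full response was set by 57 uM dopamine.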
PINK1 modulator: changes PINK1 expression | PINK1 immunofluorescence, high-content cytometry, 24 h | Potency, µM (doses to about 76.6 µM), inactives show top-dose activation (PINK1 increase), hits mostly activators | hit rate 0.2% among 410,000 | AID 624263; active = well fitted activation curve with a large enough effect; inconclusive = small, poorly fitted or top-dose-only effect; inactive = flat fitted curve, though single readings scatter; cell line not stated here;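 note: potency is the fitted concentration of half-maximal effect; % of control where 0% means no effect; nearly all actives have a fitted effect of over 65% in size; a mitochondrial uncoupler was the plate control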
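A stable cell line was treated with compounds at 5 concentrations for 24 hours, with CCCP as control. PINK1 levels and mitochondrial localization were measured by immunofluorescence with mitochondrial, cell and nuclear markers after fixation, read by laser-scanning cytometry.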
D2 agonist: activates the human D2 dopamine receptor; P14416; DiscoveRx PathHunter D2 beta-arrestin, luminescence, 90 min; 100% = 57 uM dopamine signal; activation, % (concentration not given with the values); hit rate 0.084% among 360,000; AID 624465; in the data active = activation above about 40%; inconclusive = about 15% to 40%; inactive = below about 15%; note: compound concentration not given in the record; the text of the record calls up to 30% inactive
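Agonist mode: compounds alone added to overnight-plated D2 PathHunter cells for 90 min at 37 C, with 57 uM final dopamine (EC100) defining full response. Beta-arrestin recruitment detected by chemiluminescent reagent, read after 1 h at ambient temperature.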
TRPML1 ag: activates the human TRPML1 channel; Q9GZU1; TRPML1-expressing cells, Ca2+ dye fluorescence, FDSS; host cell line not named in the record; reference of the full effect not given here; AID 624414; hit rate 0.12% among 410,000; activation, % (concentration not given with the values); in the data active = activation above about 50%; inconclusive = about 30% to 50%; inactive = below about 30%; note: 0% is about no effect; the text of the record puts the active cut at 80%
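In this qHTS format, compounds were pin-transferred onto Ca8-dye-loaded TRPML1-DL cells induced with Tet overnight, and intracellular Ca2+ fluorescence was recorded kinetically for 110 s after a 10 s baseline. A subsequent 4uM final 54-4 (EC80) addition followed by a second 110 s read served as the antagonist phase.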
TRPML1 inh: blocks the human TRPML1 channel | Q9GZU1 | TRPML1-inducible cells, Ca2+ dye fluorescence, FDSS; stronger effect = lower value; inhibition of EC80 agonist-evoked calcium signal | activity change, negative = inhibition, % (no concentration beside the values) | hit rate 0.02% among 390,000; in the data active means activity change below about -50%; inconclusive means about -30% to -50%; inactive means above about -30%;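 note: stimulus is agonist 54-4 at its EC80 concentration; % is set by controls: 0 for no effect and ±100 for the full control effect; compound concentration not given in the record; the text of the record puts the active cut at -80%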
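Tet-induced TRPML1-DL cells loaded with Ca8 no-wash calcium dye were read kinetically on FDSS. Compound addition was followed by EC80 agonist 54-4 (4 uM final); inhibition was read over 110 s.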
Numbers without * were called inactive; ? = inconclusive; nt = no result given; [ ] = dose if it differs, or a comment. This is a random part of the collection; any-hit rate near 1%.

SMILES	Six1-Eya2 inh	D2 potentiator	PINK1 modulator	D2 agonist	TRPML1 ag	TRPML1 inh
CN(C(=O)CCCN1CCCC1=O)C1CCCN(Cc2ccccc2F)C1 (configuration not stated)	6	3	-1.6%	-0.8	-0.4	-3
CCC(NC(=O)CCc1c(C)c2cc3c(-c4ccccc4)coc3cc2oc1=O)C(=O)O (configuration not stated)	-23	-6	-0.7%	-1.5	0.9	4
COc1ccc(C(=O)CSc2nnc(Cn3nnc4ccccc43)n2C)cc1	5	-16	nt	1.7	-0.4	-3
Cc1nn(C)cc1CN1CCCC(C(=O)c2ccc(-c3ccccc3)c(F)c2)C1 (configuration not stated)	4	-10	0.3%	-5.3	-0.1	?
CCC(=O)Nc1c2c(nc3c1CCC3)CCCC2	7	2	-0.3%	1.6	0.3	16
Cn1nc(-c2ccc(Cl)cc2)cc1NC(=O)CCCC(=O)O	6	3	-1.3%	-0.9	0.7	9
O=C(O)c1cc(-c2ccc(Cl)cc2)n(-c2ccc(Cl)cc2)n1	5	8	-0.1%	1.5	-0.6	0
CS(=O)(=O)N1CCc2cc(C(=O)N3CCCCC3)ccc21	-6	-4	1.4%	2.4	0.5	-18
Cc1cc(C)cc(Oc2nc3c(C)cccn3c(=O)c2/C=C(\C#N)C(=O)NC2CCS(=O)(=O)C2)c1 (configuration not stated)	9	17	-2.0%	-1.0	0.5	-3
CN(C)S(=O)(=O)c1cccc(C(=O)Nc2cc(S(=O)(=O)N3CCOCC3)ccc2N2CCCC2)c1	-3	-3	1.7%	-2.2	-0.4	1
CCc1ccccc1NC(=O)C1CCCN1C(=O)NCc1ccccc1 (configuration not stated)	-2	-4	2.3%	-0.4	-0.2	7
CCC(OC(=O)C(C)N1C(=O)C(=O)c2ccccc21)C(=O)Nc1ccccc1OC (configuration not stated)	-2	-19	11%	-8.3	1.5	-2
COc1ccc(CCN(C)C(=O)CSc2nccn2C)cc1OC	-2	-3	-0.8%	-0.8	-0.8	-7
CC(=O)N1CCc2cc(S(=O)(=O)CCC(=O)O)ccc21	11	-16	0.3%	-0.1	1.3	4
CSCCC1NC(=S)N(Cc2ccccc2)C1=O (configuration not stated)	-1	-24	-0.3%	-18	nt	nt
COc1ccc(-c2c(-c3ccsc3)oc3ccc(N4CCOCC4)cc23)cn1	?	0	1.9%	2.5	2.0	67
O=S1(=O)c2ccccc2N(Cc2ccc(Cl)cc2F)c2ccccc21	nt	nt	0.4%	nt	2.3	-21
O=[N+]([O-])c1cccc(COc2ccccc2CN2CCCCC2)c1	-3	-19	0.8%	-1.7	1.7	-3
O=C(NCCc1ccccc1)c1ccc(CSc2nc3ccncc3n2Cc2ccc(F)cc2)cc1	nt	nt	4.6%	nt	2.3	0
O=C(Nc1ccn(C2CCC(CO)O2)c(=O)n1)c1ccccc1 (configuration not stated)	1	-7	0.0%	3.5	-0.2	nt

Nothing new here: an excerpt of the list.
SMILES	Six1-Eya2 inh	D2 potentiator	PINK1 modulator	D2 agonist	TRPML1 ag	TRPML1 inh
CCc1ccccc1NC(=O)C1CCCN1C(=O)NCc1ccccc1 (configuration not stated)	-2	-4	2.3%	-0.4	-0.2	7
CCC(OC(=O)C(C)N1C(=O)C(=O)c2ccccc21)C(=O)Nc1ccccc1OC (configuration not stated)	-2	-19	11%	-8.3	1.5	-2

Remaining list, next part
SMILES	Six1-Eya2 inh	D2 potentiator	PINK1 modulator	D2 agonist	TRPML1 ag	TRPML1 inh
COc1ccc(-c2nn(-c3ccccc3)cc2/C=C(\C#N)C(N)=O)cc1[N+](=O)[O-]	?	-3	1.3%	1.0	-0.5	-5
CCc1ccc(NC(=O)C(C)OC(=O)c2ccc(-n3cnnn3)cc2)cc1 (configuration not stated)	3	-67	12%	-0.2	1.1	12
CCCc1nc2cc(C)c(Br)c(C)n2c1Cc1ccsc1	15	nt	?	nt	1.0	nt
C[C@]12CC[C@H](O)CC1=CCC1C2CC[C@@]2(C)C1CC[C@@H]2NC(=O)[C@@H](N)CO (some centres not stated)	2	-6	5.0%	1.1	0.3	4
COc1ccc(N2CC(C(=O)N[C@@H](C)C(=O)N3CCCCC3)CC2=O)cc1 (some centres not stated)	2	-4	1.7%	-6.1	-0.7	26
Cc1cc(Cl)ccc1OCCCC(=O)NCCCn1ccnc1	4	-8	4.9%	-4.0	3.9	11
CCNC(=S)N/N=C/c1cccc(OCc2c(F)cccc2Cl)c1	-6	-3	0.0%	-1.6	2.2	-1
Cc1ccc(OCC(=O)Nc2nc(C)c(Cl)cc2Cl)c([N+](=O)[O-])n1	0	3	2.0%	-2.5	-0.3	-2
COc1ccc(-n2c(=O)c3c4c(sc3n(CC(=O)C(C)(C)C)c2=O)CCCC4)c(OC)c1	nt	nt	4.2%	nt	1.9	1
O=C(O)CCCC(=O)Nc1cccc(C(F)(F)F)c1	8	-2	-1.1%	-1.4	-0.7	12
C[C@H](CO)N1C[C@H](C)[C@@H](CN(C)S(=O)(=O)c2ccccc2)Oc2c(NC(=O)c3ccncc3)cccc2C1=O	28	0	2.0%	0.7	-1.1	3
COc1cccc(-c2cc(C(=O)Nc3cc(OC)c(OC)c(OC)c3)no2)c1	-5	-5	11µM*	0.4	3.5	-25
Cc1nc(C)c(C(=O)Nc2nc3c(C)cccc3s2)o1	-15	-6	1.2%[38.3 µM]	-1.1	-0.6	-5
O=C(CSc1cccc[n+]1[O-])N1CCc2ccccc21	2	-12	0.2%	-7.7	nt	nt
CCC(=O)c1ccc(OCC(=O)N(CC)CC(=O)Nc2ccccc2OC)cc1	3	-16	-0.6%	0.0	0.7	-14
O=C(O)c1ccc(NCc2ccc3c(c2)OCO3)cc1	7	-19	-1.0%	1.1	0.1	-3
Clc1ccc(-n2ncc3c(NCc4cccnc4)ncnc32)cc1Cl	-4	11	?	-0.2	-0.6	9
CCN(CC)S(=O)(=O)c1cc(C(=O)NC2CCCCC2)ccc1C	3	-4	-1.1%[38.3 µM]	0.7	1.4	-7
COc1ccc(-c2nc(CN3CCCCC3CCc3ccccn3)c(C)o2)cc1 (configuration not stated)	2	-15	-0.4%	-1.7	-0.7	31
O=C1CC(C(=O)O)C(c2ccccc2)c2ccccc21 (configuration not stated)	9	-1	-1.8%	-0.7	2.8	26
Cc1ccc(NS(=O)(=O)c2cc(C(=O)N3CCc4ccccc4C3)ccc2Cl)cc1	-5	-10	nt	-1.1	1.5	0
CC1(C)CC(=O)C=C(c2ccc(-c3cccc(C(N)=O)c3)cc2)C1=O	-18	-4	2.3%	-6.6	-0.5	3
Cc1ccc(Nc2nc(-c3ccccc3)c(CC(=O)O)s2)cc1	2	-8	0.5%	-0.4	0.6	-5
O=C(CCCN1C(=O)c2ccccc2C1=O)NCC1CCCO1 (configuration not stated)	-5	3	21%[38.3 µM]	-4.6	-0.4	0
CCOC(=O)N1CCN(C(=O)CSCC(=O)N=c2sc3ccccc3n2C)CC1	0	-22	1.5%	1.3	-0.4	3
Cc1ccc2c(C)c(C(=O)Nc3nnc(C)s3)oc2c1	9	18	0.0%	-1.7	-0.9	2
CNC(=O)Cn1c(C)cc(=O)c2cccc(OC)c21	3	1	-0.2%	3.9	0.8	24
Cc1cc(NC(=O)CCC(=O)N(CC(=O)NCC2CCCO2)c2ccc3c(c2)OCCO3)no1 (configuration not stated)	2	-4	-1.3%	-3.1	1.2	-9
O=[N+]([O-])c1ccccc1OCCOc1ccccc1[N+](=O)[O-]	4	-10	-2.9%	-1.6	-0.7	1
COc1ccc(NC(=O)COc2ccc(C(=O)c3ccc(F)cc3)cc2)cc1S(N)(=O)=O	-14	-8	0.2%	-2.8	-1.2	2

A few values from the list.
Result of COc1ccc(-n2c(=O)c3c4c(sc3n(CC(=O)C(C)(C)C)c2=O)CCCC4)c(OC)c1 under PINK1 modulator: 4.2%
Result of COc1ccc(N2CC(C(=O)N[C@@H](C)C(=O)N3CCCCC3)CC2=O)cc1 (some centres not stated) under TRPML1 inh: 26

Following part:
SMILES	Six1-Eya2 inh	D2 potentiator	PINK1 modulator	D2 agonist	TRPML1 ag	TRPML1 inh
Cc1cccc(NC(=S)Nc2c(C)n(C)n(-c3ccccc3)c2=O)c1C	19	-22	-2.2%	-4.7	-0.4	-16
Cc1cc(-c2ccc(C)c(S(=O)(=O)N(C(C)C)C3CCCCC3)c2)on1	nt	nt	-0.4%	nt	0.1	31
N#Cc1c(NC(=O)CSc2nnc(-c3ccccc3O)n2-c2ccccc2)sc2c1CCCC2	2	2	5.6%	-1.8	-0.1	-3
CC(C)N1CCN(Cc2ccc(OC3CCCC3)cc2)CC1CCO (configuration not stated)	4	-5	3.0%	-4.9	-0.4	3
Cc1ccn2cc(-c3ccc(NC(=O)c4ccco4)cc3)nc2c1	-2	1	?	1.9	1.2	-7
O=C(CCS(=O)(=O)c1cccs1)Nc1ccc(C(=O)NCc2cccs2)cc1	1	1	5.1%[38.3 µM]	-2.2	0.3	-1
CCc1ccc(NC(=S)/N=C(\N)Nc2nc(C)c3cc(CC)ccc3n2)cc1	-23	-11	0.4%	-1.6	1.1	-8
CN(C(=O)CSc1cccc[n+]1[O-])c1ccccc1	5	-2	0.3%	-0.7	-0.3	-2
O=C(Cc1cccc2ccccc12)NCC(=O)Nc1ccccc1F	0	-18	0.3%	-3.5	1.3	?
O=C(NCC1CCCO1)c1cc2c(=O)[nH]c3ccccc3c2s1 (configuration not stated)	-7	-4	2.4%	10	0.8	0
Cc1cc(C)nc(SCC(=O)OCC(=O)N(C)c2c(N)n(Cc3ccccc3)c(=O)[nH]c2=O)n1	2	5	2.7%	-0.1	0.0	-6
CCc1noc(C)c1C(=O)N1CCCSC1=Nc1ccccc1C(C)C	9	-17	1.2%	-2.5	4.5	-8
CC(C)(C)c1ccc(OCCC(=O)OCC(=O)Nc2cccnc2Cl)cc1	0	-9	8.9%	-5.6	0.9	-4
C=CCOC(=O)/C(=C/c1cccc2ccccc12)NC(=O)c1ccccc1	-2	-15	9.0%	-5.1	0.1	-10
CC(C)NC(=O)N(C)C[C@H]1Oc2c(NC(=O)C3CCCCC3)cccc2C(=O)N([C@H](C)CO)C[C@@H]1C	0	-28	1.0%	-1.0	-0.2	1
CCN(C(=O)COC(=O)c1cc(-c2cccs2)nc2ccccc12)C1CCS(=O)(=O)C1 (configuration not stated)	1	-3	1.1%	2.2	0.2	9
Fc1ccc(N/N=C/c2cccnc2)c(F)c1	-3	-3	0.3%	9.6	3.4	23
Cc1cc(C)c(OCC(=O)NCC2COc3ccccc3O2)c(C)c1 (configuration not stated)	12	-8	0.3%	2.7	0.6	13
O=C(NCc1ccccc1)c1cc(C2COCCN2C(=O)c2ccc(Cl)cc2)on1 (configuration not stated)	-2	3	0.3%	-1.2	-0.3	nt
Cc1cccc(C(=O)Nc2cccc(C(=O)OCc3cc(=O)n4nc(C5CC5)sc4n3)c2)c1	nt	nt	-1.9%	nt	-1.0	-7
CSCCC(NC(=O)c1ccc(Cl)cc1Cl)C(=O)NCc1ccncc1 (configuration not stated)	-4	-6	1.7%	-0.9	-0.9	3
CC(=O)N1CCCc2cc(S(=O)(=O)N(C)CC(=O)Nc3ccc(C)cc3C)ccc21	nt	nt	-0.2%	nt	-1.3	-13
Cc1ccc(C)c(NC(=O)CN(C)C(=O)c2cccc(N3C(=O)CCC3=O)c2)c1	10	-1	1.3%	-2.6	-0.2	-3
